# Source: PubChem BioAssay
# ClpP mod = qHTS Assay for Activators of ClpP. purified B. subtilis ClpP, FRET peptide cleavage, 20 min. Potency, µM (doses to about 57.5 µM), inactives show at the top dose activity change, negative = active. actives 1.9% (n = 340,000). AID 651965, 2013; active = well fitted falling curve with a large enough effect; inconclusive = small, poorly fitted or top-dose-only effect; inactive = no such curve, though single readings can be large or run the other way; further: potency means the concentration at half of the fitted maximal effect; the source files actives as falling curves though it sought activators and does not explain the sign; nearly all actives have a fitted effect of over 65% in size; many hits overshoot -100%
# Target sequence (P80244 whole entry, looked up): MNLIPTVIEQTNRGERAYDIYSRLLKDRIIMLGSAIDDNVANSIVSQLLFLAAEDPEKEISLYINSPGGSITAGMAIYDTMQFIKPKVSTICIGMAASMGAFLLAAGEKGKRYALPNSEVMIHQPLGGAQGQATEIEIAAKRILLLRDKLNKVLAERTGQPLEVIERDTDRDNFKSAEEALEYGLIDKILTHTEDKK
#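 ClpP 10 microg/mL final, pH 8 Tris/KCl buffer with BSA, glycerol, Tween-20; compound pinned in; FRET-FV substrate; RT 20 min; Ex320/Em430; ΔFRET vs ADEP 5.8 microM, DMSO, no enzyme.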
# gsp ag = activates gsp, the McCune-Albright syndrome mutation; Potency, µM (titrated, usually from 76.9 µM), for the others: at the highest dose activation (cAMP increase), actives largely listed as activators; gsp mutant cells, cAMP HTRF, 30 min; control for the full effect not named in the record; actives 0.13% (n = 340,000); active = well fitted activation curve with a large enough effect; inconclusive = small, poorly fitted or top-dose-only effect, or another doubt; inactive = no such curve, though single readings can be large or run the other way; cell line not stated here;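 further: phosphodiesterase inhibitor Ro 20-1724 added with compounds to block cAMP breakdown; potency means the concentration at half of the fitted maximal effect; nearly all actives have a fitted effect of over 60% in size; about a fifth of the inactives were tested at one dose only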
#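 Cells stably selected in G418 were plated at 2000/well, grown 16-24 hr, then given compounds in DMSO with the PDE inhibitor […] (300 uM solution added) for 30 min at 37C; cAMP was read by HTRF.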
# Menin MLL FP FL = displaces fluorescein MLL peptide from human menin; 290,000 tested, under 10 active; FP activity change, % at 61.4 µM; AID 1766; Fluorescence polarization, fluorescein-MLL peptide displacement from menin; inconclusive = falling polarisation curve, or a change in total fluorescence; inactive = total fluorescence flat and polarisation flat or rising; no compound was filed as active; the % refers to the polarisation; negative = inhibition;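 further: % of control where 0% means no effect; inhibitors lower the polarisation; unlabelled MLL peptide was the positive control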
# D2 agonist = agonists of human D2 dopamine receptor (beta-arrestin); P14416; DiscoveRx PathHunter D2 beta-arrestin, luminescence, 90 min; 100% = 57 uM dopamine signal; activation, % (test concentration not listed); actives 0.084% (n = 360,000); AID 624465; in the data active = activation above about 40%; inconclusive = about 15% to 40%; inactive = below about 15%; further: compound concentration not given in the record; the text of the record calls up to 30% inactive
# Target sequence (P14416 whole entry, looked up): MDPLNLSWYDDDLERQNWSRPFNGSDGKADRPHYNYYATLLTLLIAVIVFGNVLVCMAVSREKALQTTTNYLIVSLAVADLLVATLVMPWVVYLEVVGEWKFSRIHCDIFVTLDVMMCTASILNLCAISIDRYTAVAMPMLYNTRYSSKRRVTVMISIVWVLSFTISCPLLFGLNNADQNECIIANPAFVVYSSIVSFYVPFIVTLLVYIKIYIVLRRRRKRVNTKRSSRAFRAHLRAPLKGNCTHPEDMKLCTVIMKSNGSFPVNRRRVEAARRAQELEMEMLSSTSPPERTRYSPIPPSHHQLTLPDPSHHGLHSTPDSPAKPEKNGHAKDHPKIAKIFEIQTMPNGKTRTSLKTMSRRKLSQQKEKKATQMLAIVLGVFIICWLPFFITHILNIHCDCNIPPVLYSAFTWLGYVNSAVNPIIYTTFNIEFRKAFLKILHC
#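 Agonist mode: compounds alone added to overnight-plated D2 PathHunter cells for 90 min at 37 C, with 57 uM final dopamine (EC100) defining full response. Beta-arrestin recruitment detected by chemiluminescent reagent, read after 1 h at ambient temperature.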
# PINK1 modulator = PINK1 expression modulation; PINK1 immunofluorescence, high-content cytometry, 24 h; AID 624263; Potency, µM (titrated, usually from 76.6 µM), inactives show top-dose activation (PINK1 increase), most hits filed as activators; actives 0.2% (n = 410,000); active = well fitted activation curve with a large enough effect; inconclusive = small, poorly fitted or top-dose-only effect; inactive = flat fitted curve, though single readings scatter; cell line not stated here;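 further: potency means the concentration at half of the fitted maximal effect; % of control where 0% means no effect; nearly all actives have a fitted effect of over 65% in size; a mitochondrial uncoupler was the plate control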
#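 Fluorescence from anti-PINK1 antibody, together with nuclear and cell stains, was scanned on a laser-scanning cytometer. Before staining, stable-line cells were incubated 24 hours with compounds at 5 concentrations; primary antibody 12 h at 10 degrees C.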
# Sfp PPTase inh = Sfp phosphopantetheinyl transferase inhibition. actives 3.5% (n = 310,000). Potency, µM, inactives show max response, negative = inhibition, actives largely listed as inhibitors. AID 1490. Biochemical Sfp PPTase activity, qHTS. Q9F4F7; active means well fitted inhibition curve with a large enough effect; inconclusive means small, poorly fitted or top-dose-only effect, or another doubt; inactive means no such curve, though single readings can be large or run the other way;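 further: the enzyme is Sfp with the accession as filed and its product quenches rhodamine fluorescence; potency means the concentration at half of the fitted maximal effect; 0% = enzyme reaction without inhibitor and -100% = no enzyme wells; top concentration of the series not given in the record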
#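 Step 1, compound plus 15 nM Sfp-PPTase, 15 min, room temperature. Step 2, add rhodamine-CoA (5 uM) and BHQ-2-YbbR (12.5 uM). Step 3, read 525/598 nm fluorescence at 0 and 30 min.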
# gsp antag = gsp mutant antagonism; gsp-mutant cells, cAMP HTRF, 30 min; control for the full effect not named in the record; Potency, µM (highest dose often 76.9 µM), without a hit: at the top dose activity change, negative = inhibition, hits mostly inhibitors; actives 0.4% (n = 340,000); AID 624288; active = falling curve of any shape with a large fitted effect; inconclusive = falling curve, mostly with a smaller effect; inactive = flat or rising curve; cell line not stated here;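 further: intracellular cAMP measured with PDE inhibitor Ro 20-1724 present during compound exposure; potency means the concentration at half of the fitted maximal effect; on the % scale 0 is the no-effect control and ±100 the full control effect; nearly all actives have a fitted effect of over 65% in size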
#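 HTRF cAMP read-out (cAMP-d2 plus anti-cAMP antibody-K in lysis buffer, 30 min RT). Before lysis, cells are exposed to compounds with […] for 30 min at 37C in DPBS containing Ca/Mg, BSA and Tween 20.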
# * hit, by the source's call; u = inconclusive; x = no result given; & = joins results of further samples; [ ] = another dose, or the depositor's remark.
Molecule	D2 agonist	ClpP mod	Menin MLL FP FL	PINK1 modulator	gsp ag	gsp antag	Sfp PPTase inh
N#CCC(CNc1ncc(C(F)(F)F)cc1Cl)OC(=O)c1cccc([N+](=O)[O-])c1 (stereo unspecified)	0.5	-1.8%	1.0	-0.4%[38.3 µM]	13.4%	-20.7%	29.1%
COc1c(C)cc(C(=O)C2CCCN(C(=O)C3=C(C)OCCO3)C2)cc1C (stereo unspecified)	-0.6	1.5%	3.7	0.9%	-13.0%	-0.2%	-17.6%
CCOc1ccc(Nc2nnc(SCc3nc4ccccc4c(=O)[nH]3)s2)cc1	-2.5	2.2%	1.6	u	-15.9%	3.2%	-8.8%
CCCNC(=O)CN1C(=O)c2ccccc2Sc2ncccc21	-2.4	-1.7%	5.7	-0.3%	0.1%[15.4 µM]	20.2%	18.2%
Cc1ccc2c(CC(=O)NCC(=O)Nc3c(C)cccc3C)coc2c1	-3.3	-2.0%	x	1.2%	-1.5%[15.4 µM]	2.6%	x
CC(C)(C)NC(=O)/C(=C\c1ccc(Br)cc1)NC(=O)c1cccs1	-2.0	2.1%	1.8	9.0%	-20.2%	-5.6%	14.8%
COc1ccc(NC(=S)NCc2cccnc2)cc1	-2.4	x	-1.3	0.0%	-27.5%	11.7%	3.4%
CCOC(=O)C1=C(C)Nc2ccccc2N=C1NC(=O)C1CCN(C(=O)c2ccccc2C)CC1	-2.6	x	x	-0.4%	13.8%	-4.0%	x
O=C(O)C(=O)Nc1nc(-c2ccc3c(c2)OCCO3)cs1	-6.1	0.7%	-0.2	0.4%	25.6%	-3.6%	-28.4%
Cc1ccc(S(=O)(=O)CCc2nc3ccccc3[nH]2)cc1C	-0.9	x	0.6	2.5%	-5.7%[15.4 µM]	4.8%	15.2%
Cc1csc(SCC(=O)Nc2cc(S(=O)(=O)N(C)C)ccc2C)n1	-2.0	x	x	-2.3%	54.1%[15.4 µM]	-2.2%	x
C[C@]12CCC3c4ccc(O)cc4CCC3C1CC/C2=N\N (stereo partly specified)	-1.9	x	x	-1.1%	-0.6%	-1.0%	x
COc1ccccc1/C=C/C(=O)OCC(=O)NC(=O)NC1CCCC1	-0.9	x	x	1.3%	9.2%	-25.9%	x
Cc1ccc(S(=O)(=O)NCC(c2ccco2)N2CCOCC2)cc1 (stereo unspecified)	-2.3	-0.9%&-0.7%	1.0	4.2%&-0.1%	-7.9%[15.4 µM]	11.1%	7.9%
Cc1ccc(CCNC(=O)c2cc(-c3ccncc3)nc3ccc(S(=O)(=O)N4CCOCC4)cc23)cc1	-1.5	3.0%	-1.1	3.2%	8.3%	0.1%	2.4%
CC(=O)N1c2ccc(S(=O)(=O)N(C)CC(=O)NCc3ccccc3)cc2CC1C (stereo unspecified)	-9.3	-1.9%	x	-0.6%	-19.0%	0.0%	17.3%
O=C(CSc1nc2ccccc2[nH]1)Nc1ccc2c(c1)OCCO2	-1.3	0.3%	3.8	-1.7%	-17.1%	u	13.2%
O=c1ccsn1Cc1ccccc1	-6.8	-2.5%	2.7	0.5%	-5.0%	1.7%	0.631µM*
CC(C)(C)CCN1CCC(CN2CCNC(=O)C2=O)CC1	-2.4	-0.1%	x	1.0%	x	11.8%	x
COc1ccccc1NC(=O)/C(N=Nc1ccc(C)c(S(=O)(=O)Nc2ccccc2Cl)c1)=C(\C)O	8.4	x	x	2.7%	9.6%	-13.7%	x

# More records follow:
Molecule	D2 agonist	ClpP mod	Menin MLL FP FL	PINK1 modulator	gsp ag	gsp antag	Sfp PPTase inh
CCC1CCCCN1S(=O)(=O)c1ccc(-n2cnnn2)c(C)c1 (stereo unspecified)	-1.1	x	-10.7	1.5%	u	-1.3%	2.7%
Cc1cc([N+](=O)[O-])c(NC2CCCCC2)c([N+](=O)[O-])c1	-5.2	1.7%	x	-1.7%	14.4%	-4.2%	x
Cc1ccc(N2CCN(C(=O)C3CCN(S(=O)(=O)c4cccc5nsnc45)CC3)CC2C)cc1 (stereo unspecified)	-3.2	x	x	1.5%	-16.1%	u	x
CCOC(=O)c1ccc(NC(=O)CSc2nnc(C3CC3)n2C)cc1	-3.5	1.0%	1.2	-0.2%	-23.0%	7.0%	-0.1%
COC(=O)C1=C(C)N(Cc2ccccc2)C(=O)N[C@H]1c1ccccc1	1.1	-0.9%	-4.9&-1.3	3.4%	x	-4.8%	-0.8%&6.7%
Cc1ccc(/C=N/NC(=O)Cn2cncn2)cc1	-4.5	x	0.6	1.7%	12.1%[15.4 µM]	8.7%	17.7%
COc1ccc(CN2C(=O)CN(C3CCCCCC3)C(=O)C2c2ccc(F)cc2)cc1 (stereo unspecified)	-1.1	-1.2%	0.2	7.4%[38.3 µM]	-21.7%	-17.3%	7.7%
COc1cccc(N/C(N)=N/c2nc(C(F)(F)F)cc(=O)[nH]2)c1	0.6	1.4%	2.8	8.3%	10.4%	3.5%	-8.5%
CCN(Cc1ccccc1)C(=O)COC(=O)Cn1cnc2ccccc21	1.1	-0.9%	-0.3	-0.3%	-12.5%[15.4 µM]	-2.3%	5.7%
N#CCC(=O)N/N=C/c1ccc(OC2CSC2)cc1	-5.9	-1.9%	-3.2	1.6%	-2.6%	-6.4%	12.6%
O=C(CCS(=O)(=O)c1ccccc1)NNC(=O)COc1ccc(F)cc1	5.5	-0.7%	x	0.1%	-15.2%	5.0%	x
S=C(NCc1ccccc1)NNc1ccccc1	0.3	-6.8%	-0.6	-0.1%	1.0%[15.4 µM]	17.0%	-10.2%
COc1ccc(NC(=O)C(c2ccccn2)N(C(C)=O)c2ccc(C)cc2)cc1 (stereo unspecified)	-4.8	4.7%	-1.0	2.8%	-33.8%[inhibitor]	9.0%	-3.7%
CCc1noc(C)c1C(=O)N1CCN(S(=O)(=O)c2cccs2)CC1	-2.2	0.9%	x	2.5%	-19.3%	7.2%	x
CC1(C)CC(=O)C=C(c2cccnc2)C1	-4.1	-0.9%	x	-1.8%	u	-0.6%	x
Cc1c2cnn(CC(=O)NCc3ccccn3)c(=O)c2c(C)n1Cc1ccc(Cl)cc1	2.4	-8.4%	x	-0.7%	-4.4%	-6.2%	-1.2%
C#CCOCCOCCOCCNc1nc(N2CCN(C(=O)Cn3cc(CC(C)O)nn3)CC2)nc(N2CCN(C(=O)[C@H](CCCCN)n3cc(CC(C)O)nn3)CC2)n1 (stereo partly specified)	-1.5	-0.4%	x	1.2%	x	6.6%	x
O=C(Nc1nccs1)c1cc(S(=O)(=O)N2CCOCC2)c(Cl)cc1Cl	1.5	0.5%	5.2	-5.2%[38.3 µM]	-59.9%[inhibitor]	-14.2%	19.3%
O=S1(=O)CCN2N=C(C34CC5CC(CC(C5)C3)C4)SC2=N1	2.5	x	3.6	0.0%	12.1%[15.4 µM]	x	23.6%
Nc1nc(-c2ccc(Br)cc2)c(S(=O)(=O)c2ccccc2)s1	-3.3	0.5%	-1.1	8.9%	u	13.8%	2.0%

# Given with two lines to a compound: part of the list above.
# Each structure is followed by: D2 agonist	ClpP mod	Menin MLL FP FL	PINK1 modulator	gsp ag	gsp antag	Sfp PPTase inh
CCN(Cc1ccccc1)C(=O)COC(=O)Cn1cnc2ccccc21
  1.1	-0.9%	-0.3	-0.3%	-12.5%[15.4 µM]	-2.3%	5.7%
Nc1nc(-c2ccc(Br)cc2)c(S(=O)(=O)c2ccccc2)s1
  -3.3	0.5%	-1.1	8.9%	u	13.8%	2.0%

# Next compounds follow.
Molecule	D2 agonist	ClpP mod	Menin MLL FP FL	PINK1 modulator	gsp ag	gsp antag	Sfp PPTase inh
COC(=O)/C=c1/s/c(=C(\C#N)C(=O)NCc2ccco2)n(-c2ccc(C)cc2)c1=O	-2.1	0.6%	21.8	8.8%	-2.8%	-11.4%	56.2µM*
O=C(NCC1CCCO1)c1cc(-c2ccccc2F)no1 (stereo unspecified)	2.5	1.9%	x	1.8%	-41.6%[inhibitor]	2.0%	18.8%
COc1ccc(CNC(=O)c2noc(C(C)C)c2[N+](=O)[O-])cc1	0.0	-2.5%	-0.6	-2.1%	0.6%	9.8%	10.1%
CC(=O)NCc1c(Cl)cccc1-n1cccc1	-2.0	0.7%	0.0	u	25.4%	6.0%	3.1%
O=C(Nc1ccc(F)cc1)Nc1cc(S(=O)(=O)N2CCOCC2)ccc1N1CCCC1	-0.2	-3.4%	11.4	1.2%	-7.3%[15.4 µM]	-12.0%	-7.9%
COc1ccc(C(c2nnnn2C(C)(C)C)N2CCN(C(=O)c3ccco3)CC2)cc1 (stereo unspecified)	-3.1	x	x	0.4%	-3.4%[15.4 µM]	-3.6%	7.9%
O=C(OCc1ccccc1)N1CCC2CC1c1c(-c3ccc(C(F)(F)F)cc3)cccc12 (stereo unspecified)	-0.7	0.5%	x	9.0%	x	12.9%	x
COc1cc(CNCCN2CCOCC2)ccc1OCc1ccc(Cl)cc1Cl	-2.5	1.6%	1.5	-0.4%	-18.7%	15.0%	-4.7%
COc1ccc(C(=O)COC(=O)C(CCCCN2C(=O)C3C4C=CC(C4)C3C2=O)N2C(=O)C3C4C=CC(C4)C3C2=O)cc1 (stereo unspecified)	-2.5	-0.4%	-1.0	-0.3%[38.3 µM]	-13.3%	u	-0.7%
CS(=O)(=O)N1CCN(C(=O)c2ccccc2F)CC1	2.3	-1.2%	0.0	0.4%	-18.8%	-0.2%	12.5%
O=C(Cn1nc(-c2ccccc2)c2ccccc2c1=O)Nc1cccnc1	-1.7	-0.4%	0.7	-1.7%	-3.1%	5.6%	u

# Just ClpP mod and PINK1 modulator, for some of the entries so far:
compound,ClpP mod,PINK1 modulator
O=C(Nc1ccc(F)cc1)Nc1cc(S(=O)(=O)N2CCOCC2)ccc1N1CCCC1,-3.4%,1.2%
O=C(Cn1nc(-c2ccccc2)c2ccccc2c1=O)Nc1cccnc1,-0.4%,-1.7%

# Exported with two lines to a compound: entries from further up
# Values run as follows: D2 agonist, ClpP mod, Menin MLL FP FL, PINK1 modulator, gsp ag, gsp antag, Sfp PPTase inh
O=C(OCc1ccccc1)N1CCC2CC1c1c(-c3ccc(C(F)(F)F)cc3)cccc12 (stereo unspecified)
    -0.7, 0.5%, x, 9.0%, x, 12.9%, x
COc1cc(CNCCN2CCOCC2)ccc1OCc1ccc(Cl)cc1Cl
    -2.5, 1.6%, 1.5, -0.4%, -18.7%, 15.0%, -4.7%
